NPR1 antag = blocks ANP-stimulated signaling of human Npr1 receptor. P16066. HEK293 hNpr1 GloSensor cGMP, ANP-stimulated luminescence. Potency, µM (top dose mostly 46.3 µM), for the others: at the highest dose activity change, negative = inhibition, most hits filed as inhibitors. actives 1.6% (n = 76,000); active = well fitted inhibition curve with a large enough effect; inconclusive = small, poorly fitted or top-dose-only effect; inactive = no such curve, though single readings can be large or run the other way;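 note: nearly all actives have a fitted effect of over 60% in size; nearly all hits also lower the signal before the agonist is added; a reference antagonist and vehicle were the controls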
Target sequence (P16066 whole entry, looked up): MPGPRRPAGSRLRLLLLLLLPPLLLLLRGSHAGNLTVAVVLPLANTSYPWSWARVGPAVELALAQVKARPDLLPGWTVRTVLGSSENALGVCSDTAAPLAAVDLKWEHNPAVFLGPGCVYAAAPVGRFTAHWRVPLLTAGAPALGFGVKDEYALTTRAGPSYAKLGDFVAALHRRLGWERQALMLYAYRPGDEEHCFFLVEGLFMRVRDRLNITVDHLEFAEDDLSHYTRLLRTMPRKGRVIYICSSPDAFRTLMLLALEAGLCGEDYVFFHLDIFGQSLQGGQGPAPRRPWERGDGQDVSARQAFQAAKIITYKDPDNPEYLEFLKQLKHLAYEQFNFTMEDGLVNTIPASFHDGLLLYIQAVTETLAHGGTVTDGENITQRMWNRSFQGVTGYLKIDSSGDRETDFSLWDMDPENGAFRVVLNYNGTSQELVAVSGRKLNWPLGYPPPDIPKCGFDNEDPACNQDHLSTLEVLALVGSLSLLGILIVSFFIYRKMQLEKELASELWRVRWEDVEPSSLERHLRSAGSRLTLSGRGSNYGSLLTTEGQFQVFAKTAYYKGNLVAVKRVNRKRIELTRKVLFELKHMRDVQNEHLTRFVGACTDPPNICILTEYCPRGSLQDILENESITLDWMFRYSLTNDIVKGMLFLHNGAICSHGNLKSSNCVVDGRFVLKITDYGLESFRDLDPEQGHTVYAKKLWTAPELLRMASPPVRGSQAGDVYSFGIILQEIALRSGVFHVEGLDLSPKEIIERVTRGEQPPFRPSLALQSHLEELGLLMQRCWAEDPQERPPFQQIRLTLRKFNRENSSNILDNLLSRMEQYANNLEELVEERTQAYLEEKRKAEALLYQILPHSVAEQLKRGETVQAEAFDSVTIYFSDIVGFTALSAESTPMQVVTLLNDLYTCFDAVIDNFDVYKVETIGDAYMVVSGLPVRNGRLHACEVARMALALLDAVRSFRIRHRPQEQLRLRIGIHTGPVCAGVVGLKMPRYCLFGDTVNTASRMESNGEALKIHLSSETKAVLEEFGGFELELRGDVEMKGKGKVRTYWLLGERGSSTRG
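HEK293 cells stably expressing human Npr1 and cGMP GloSensor pGS-40F, loaded 2 h with 2% GloSensor reagent, given compound 30 min at room temperature. Luminescence read before and 20 min after 0.1 nM hNppA.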
* = called active by the depositor; ? = inconclusive; [ ] = another dose, or the depositor's remark. % is set by controls: 0 for no effect and ±100 for the full control effect; potency is the fitted concentration of half-maximal effect. An excerpt (hit frequency here may not be typical).

item	molecule	NPR1 antag
1	O=C(CC1CCCCC1)N1CCC(Cc2nc(-c3ccccc3)no2)CC1	10µM*
2	Cc1ccc(C(=O)N[C@@H]2CN(c3ccncn3)C[C@H]2CN(C)C)cn1	-3%
3	CCNC(=O)N1CC(Oc2ccc(-c3nc(-c4ccccc4)no3)cc2)C1	0.25µM*
4	Cc1ccc(-c2ccc3nnc(CNC(=O)COc4cccc(C)c4)n3n2)cc1	3%
5	CCCc1nc(C(=O)N2CCC3(CC2)C(=O)N(C)c2ccccc23)cs1	2%
6	O=C(CC1CCN(C(=O)c2ccc(F)cc2)C1)NCc1ccccc1 (stereo not drawn)	-1%
7	Cn1ccc(C(=O)N2CCC3(CC2)OC(=O)N(Cc2ccccc2)C3(C)c2ccccc2)n1 (stereo not drawn)	-2%
8	Cn1ccnc1CN1CCOC(CCNC(=O)NC2CCCC2)C1 (stereo not drawn)	19%
9	O=C(O)C[C@@H]1CCN(C(=O)c2ccco2)C[C@@H]1CCN1CCOCC1	-1%[70.6 µM]
10	C[C@]1(CO)[C@H]2Cc3sc(NC(=O)c4ccc(F)cc4)nc3[C@@H](CC(=O)N3CCOCC3)[C@]2(C)CC[C@H]1O	3%
11	COc1ccc(-c2nc(C)c(C)cc2C#N)c2cccnc12	5%
12	CCCS(=O)(=O)N1CCc2nn(C)c(=O)n2CC1	-1%

Four entries from above, field by field.
6: O=C(CC1CCN(C(=O)c2ccc(F)cc2)C1)NCc1ccccc1 (stereo not drawn)
- NPR1 antag: -1%

7: Cn1ccc(C(=O)N2CCC3(CC2)OC(=O)N(Cc2ccccc2)C3(C)c2ccccc2)n1 (stereo not drawn)
- NPR1 antag: -2%

8: Cn1ccnc1CN1CCOC(CCNC(=O)NC2CCCC2)C1 (stereo not drawn)
- NPR1 antag: 19%

9: O=C(O)C[C@@H]1CCN(C(=O)c2ccco2)C[C@@H]1CCN1CCOCC1
- NPR1 antag: -1%[70.6 µM]

From entry 1 as far as 4, as listed above:
item	molecule	NPR1 antag
1	O=C(CC1CCCCC1)N1CCC(Cc2nc(-c3ccccc3)no2)CC1	10µM*
2	Cc1ccc(C(=O)N[C@@H]2CN(c3ccncn3)C[C@H]2CN(C)C)cn1	-3%
3	CCNC(=O)N1CC(Oc2ccc(-c3nc(-c4ccccc4)no3)cc2)C1	0.25µM*
4	Cc1ccc(-c2ccc3nnc(CNC(=O)COc4cccc(C)c4)n3n2)cc1	3%

Remaining list, next part.
item	molecule	NPR1 antag
13	COc1ccc(CN2CCNC(=O)C2CC(=O)NCc2ccco2)c(F)c1 (stereo not drawn)	-1%
14	CCn1nnc(-c2cccc(NS(=O)(=O)NCc3ccccc3)c2)n1	0%
15	CCn1ccc(C(=O)N2CCCC2c2nc(C3CCOCC3)no2)n1 (stereo not drawn)	2%
16	COc1ccccc1C(=O)NC1CCN(c2ccc(C)cc2)C1=O (stereo not drawn)	-5%
17	CN1C(=O)CO[C@H](c2ccc(NC(=O)NC(C)(C)C)cc2)[C@H]1CO	-1%[70.6 µM]
18	Cc1noc(C)c1C(=O)N1C[C@@H](COCC2CC2)[C@H](c2ccccn2)C1	7%
19	CCCCc1cc(C[C@H]2CNCC[C@H]2CC(=O)N2CCC(n3c(=O)[nH]c4ccccc43)CC2)no1	0%
20	CCOCCOC1CCN(S(=O)(=O)c2ccccc2)CC1	0%
21	Cc1ccc(-c2nnc(C3CN(C(=O)C4CCC4)CC34CCOCC4)o2)cc1 (stereo not drawn)	1%
22	COCCc1nncn1C1CCN(C(=O)c2ccc(OC)cc2)CC1	-8%
23	O=C(NC1CCN(c2cc(-c3cccs3)[nH]n2)C1)c1ccncc1 (stereo not drawn)	-11%
24	CCOc1ccccc1CNC(=O)c1noc(-c2ccc(C)cc2)n1	2%
25	CC(Oc1ccc(CN2CCN(CCS(C)(=O)=O)CC2)cc1)C(=O)O (stereo not drawn)	-2%
26	CCC1(C(=O)Nc2ccc(C(C)C)cc2)CCCCC(=O)N1 (stereo not drawn)	-3%
27	COc1cccc(NC(=O)N2CCC(OC3CCN(S(C)(=O)=O)CC3)CC2)c1	-18%
28	CCCN(Cc1ccncc1)C(=O)c1cnc(-c2ccccn2)[nH]c1=O	2%
29	N#Cc1ccc(CN2CCCC3(COc4ccccc4C(=O)N3)C2)cc1 (stereo not drawn)	-19%
30	O=C(Cc1ccc(F)cc1)N1CCC(Cc2nc(-c3ccc(F)cc3)no2)CC1	13µM*
31	CCn1ccc(C(=O)NC2CCN(c3cc(-c4ccccc4)[nH]n3)CC2)n1	-10%
32	COc1ccc(C2Cn3cnc(C(=O)N4CCC(C(=O)NC(C)c5ccccc5)CC4)c3CO2)cc1 (stereo not drawn)	3%
33	O=C(C1CCC1)N1CCC(n2cnnc2C2CC2)CC1	-10%
34	CCC(c1cccs1)N1C(=O)[C@H]2CN(S(=O)(=O)c3cc(F)ccc3F)C[C@H]2C1=O (stereo partly drawn)	-8%
35	O=C(c1ccccc1F)N1CCC(Oc2cccnc2)C1 (stereo not drawn)	1%
36	Cc1cccc(C(=O)N2CCC3(CC2)CC(N(Cc2ccc(F)cc2)C2CC2)CCO3)c1 (stereo not drawn)	?
37	COc1ccccc1-c1cnc2n[nH]c(-c3sccc3C)c2n1	-19%[70.6 µM]
38	COc1ccc(C(=O)N2CCC3(CC2)NC(=O)N(c2cccc(F)c2)N3)cc1F	0%
39	O=C1CCN(C(=O)c2ccsc2)CCCC(c2nc(-c3cccnc3)no2)CCN1 (stereo not drawn)	-2%
40	CN(C)Cc1cc(CC2(NCc3cc4ccccc4o3)COC2)no1	-3%[70.6 µM]
41	CC(C)(C)CC(=O)N1CCC(N2C(=O)CCC2C(=O)NCc2cccnc2)CC1 (stereo not drawn)	-6%
42	CC(C)=CCN1CCC2(CCC(CNc3ncncn3)O2)CC1 (stereo not drawn)	11%
43	CCc1noc(-c2ccn3c(CNC(=O)Cc4c[nH]c5ccccc45)nnc3c2)n1	0%
44	O=C(CCc1conc1-c1cccc(F)c1)NCc1ccc(Cl)cc1	-8%
45	Cc1ncc(CC(=O)NCC2CCN(c3cnn(C)c(=O)c3)C2)c(=O)[nH]1 (stereo not drawn)	10%
46	O=C(C1CCC1)N1CCN(C2CCN(Cc3ccccn3)C2=O)CC1 (stereo not drawn)	4%
47	CC1Oc2ccc(NC(=O)c3ccc(Cl)cc3)cc2CN(C(C)C)C1=O (stereo not drawn)	?
48	CN(Cc1cccnc1)c1nc2c(c(=O)[nH]1)CCN(Cc1cccnc1)CC2	-1%
49	COCCN1C(=O)CS(=O)(=O)C12CCN(C(=O)c1ccc3c(c1)OCO3)CC2	-2%
50	COc1cc(CN2CCC3(CC2)[C@H](O)C[C@@H]3OCCN)cc(OC)c1	-3%
51	O=C(c1cccnc1)N1CC[C@H](c2nnc(-c3cccnc3)o2)C1	0%[70.6 µM]
52	O=S(=O)(NCC1CCOCC1)c1ccc(F)c(F)c1	1%
53	CN1CC2(CCCN(C(=O)c3ccc(OC(F)F)cc3)CC2)OC1=O (stereo not drawn)	1%
54	O=C(NCC(F)(F)F)C1CCCN(c2nc3ncccc3o2)C1 (stereo not drawn)	0%[70.6 µM]
55	COc1ccccc1-c1ccc2ncc(Nc3ccc(CCO)cc3)n2n1	5%[70.6 µM]
56	CCCCSc1ncc(CN2CCCC2c2ccc(C(N)=O)s2)cn1 (stereo not drawn)	-26%
57	CN(C)c1nc(NC2CC(c3cc(=O)[nH]c(C4CC4)n3)C2)ncc1F (stereo not drawn)	0%
58	CCc1nc2c(c(-c3ccc(O)cc3)n1)CN(Cc1ccccc1OC)CC2	-18%
59	O=C(NCc1cccnc1Oc1cccc(C(F)(F)F)c1)c1cccs1	-1%
60	COCCOC1CCN(C(=O)NCc2ccc(C)cc2)CC1	4%
61	CN[C@H](C(=O)N[C@@H]1C=C(C(=O)N[C@H](Cc2c[nH]c3ccccc23)C(N)=O)C[C@@H](O)[C@@H]1O)C(C)C	12%
62	CC(C)CN1CCOC[C@H](Oc2ccccc2)C1	4%[70.6 µM]
63	Cn1ncc(N2CCCC(CC(=O)NCCc3ccccc3)C2)cc1=O (stereo not drawn)	-4%
64	CC1=C[C@@H](CNC2CCOCC2)[C@H](C(C)C)C[C@H]1Cc1nc2ccccc2[nH]1	0%[70.6 µM]
65	COc1cccc(C2Cn3nnc(-c4nc(-c5cccc(C(F)(F)F)c5)no4)c3CO2)c1 (stereo not drawn)	1%
66	CC(C)CCN1CCC2(CC1)CC(C(C)C)=NO2	21%[70.6 µM]
67	CC(C(=O)NCC1CCCO1)N1C(=O)COc2ccc(C(=O)COc3ccc(F)cc3F)cc21 (stereo not drawn)	-6%
68	COCCN1C(=O)c2cccn2CC1CNC(=O)c1ccc(OC)nc1 (stereo not drawn)	-1%
69	O=C(CN1CCOCC1)N1CCC(c2nc(CCOCC3CCCC3)no2)C1 (stereo not drawn)	2%
70	COC1CCC12CCN(Cc1scnc1C)CC2 (stereo not drawn)	6%
71	CC(C)CN1C(=O)c2cccn2CC1C(=O)NCCCN1CCCC1=O (stereo not drawn)	0%
72	c1cnc(N2CC[C@H](c3nnc(-c4ccncc4)o3)C2)nc1	7%[70.6 µM]

(more compounds)
item	molecule	NPR1 antag
73	CN(CCc1ccccn1)C(=O)CN1CC2CC(C1)[C@H]1CCCC(=O)N1C2 (stereo partly drawn)	3%
74	CCn1nc(C)c(CN2C[C@@H](COC)[C@H](c3ccncc3)C2)c1C	0%
75	O=C1Nc2ccccc2C12CCN(S(=O)(=O)c1cccs1)C2 (stereo not drawn)	-4%[70.6 µM]
76	CN1CCOc2c(C(=O)NCc3cnn(C)c3)cc(-c3ccc(CO)cc3)cc21	0%[70.6 µM]
77	CCn1ccc(C(=O)N2CCC(N3C(=O)C(OC)C34CCOCC4)CC2)n1 (stereo not drawn)	-1%
78	Cn1nccc1C(=O)N1CCN(C2CCN(Cc3cccnc3)C2=O)CC1 (stereo not drawn)	2%
79	O=C(CN1C(=O)CNC1=O)N1CCc2nnc(-c3ccccc3)n2CC1	4%
80	CC(=O)NCCNC[C@@H]1C=C(C)[C@H](Cc2nnc(-c3ccccc3)o2)C[C@H]1C(C)C	1%[70.6 µM]
81	C[C@@H]1CN(c2cc(C3CC(O)C3)ncn2)C[C@H](C)O1 (stereo partly drawn)	0%
82	Cc1ccc(C(=O)N2CCC3(CCCN(C4CCOCC4)C3=O)C2)cc1F (stereo not drawn)	-2%
83	Cc1noc(C)c1S(=O)(=O)N1CCC2(CC1)CC(N(C)Cc1ccccc1)CCO2 (stereo not drawn)	15%
84	CN1[C@@H](CCC(=O)NCc2ccccc2)CNC(=O)[C@@H]2[C@H]1CCN2Cc1cccc(OC(F)(F)F)c1	-3%
85	O=C(Cc1ccc(F)cc1)N1CCC(n2cc(-c3nc(-c4ccccc4)no3)nn2)CC1	?
86	O=C1CCN(Cc2cccnc2)CCCC(C(=O)NCCCn2cccn2)CCN1 (stereo not drawn)	1%
87	COc1ccc(CN2CCC3(CC2)C(C(=O)O)CC(=O)N3C)cc1 (stereo not drawn)	0%
88	COc1ccc(CC(=O)N2CC[C@@H](CC(=O)O)[C@@H](CCN3CCC(n4c(=O)[nH]c5ccccc54)CC3)C2)cc1	2%
89	COc1ccc(N2C(=O)C3(CCCCC3)C2C(=O)NCCCN2CCCC2=O)cc1 (stereo not drawn)	-1%
90	COc1ccc(-c2noc(C(=O)NC(C)C)c2[C@H](C)O)cc1	6%[70.6 µM]
91	COc1ccc(CCNC(=O)CN2C(=O)NC(c3ccccc3Cl)C3=C2COC3=O)cc1OC (stereo not drawn)	-1%
92	COc1cc(-c2cccs2)cc2c1OCCN(C(=O)c1ccncc1C)C2	1%
93	Cc1ccc(CN(C)Cc2ccc(F)cc2)cc1	10%[70.6 µM]
94	O=C1NCCCCCCN(Cc2ccncc2)[C@@H]2CN(Cc3cccnc3)CC[C@@H]12	1%
95	Cc1nnc2ccc(NCC(C)C)nn12	2%
96	COc1ccc(-c2noc(CC3CCN(C(=O)Cc4ccccc4OC)CC3)n2)cc1	?
97	Cc1ccc(-c2noc(-c3nc(Cc4ccc(F)cc4)no3)n2)cc1	3%
98	CCC(=O)NCC(=O)N1CCCCCCNC(=O)CC1c1ccccc1 (stereo not drawn)	0%
99	COc1cccc(C(=O)N2CCC(Cc3nc(C(C)C)no3)CC2)c1	-16%
100	CN(C)Cc1nnc(C2CC(NC(=O)Cc3c[nH]c(=O)n(C)c3=O)C2)n1C (stereo not drawn)	2%
101	CC(=O)N(C1CCOCC1)C1CCN(C(=O)NCc2ccc(OC(F)(F)F)cc2)CC1	1%
102	O=C([C@@H]1C[C@H](F)CN1C(=O)c1ccccc1C(F)(F)F)N1CCOCC1	2%
103	Cc1cc(NS(=O)(=O)c2ccc3c(c2)CN(C(=O)CCC(C)C)CC3)no1	-2%
104	CCC1Oc2ccc(NC(=O)c3cccs3)cc2CN(Cc2ccc(OC)cc2)C1=O (stereo not drawn)	-14%
105	Cc1n[nH]c(C)c1CCCn1ccnc1-c1cnc[nH]1	4%
106	CC(c1ccccc1)N1Cc2cc(NC(=O)Cc3cccs3)ccc2OCC1=O (stereo not drawn)	2%
107	CC(=O)c1cccc(NC(=O)c2cnc(-c3ccccc3)nc2-c2ccncc2)c1	-15%
108	O=C1C2CN(Cc3ccc(F)cc3F)CCC2OCCN1Cc1ccccc1 (stereo not drawn)	-2%[70.6 µM]
109	COc1ccc2[nH]c3c(c2c1)CCN(C)C31CCN(C(=O)c2ccccc2F)CC1	6%
110	c1ncc(-c2ccc(-c3noc([C@@H]4CCCN4Cc4ccc5c(c4)OCO5)n3)cn2)cn1	-5%[70.6 µM]
111	O=C1CC2CCCC(C1)N2C(=O)c1ccccn1	9%[70.6 µM]
